Source: PubChem (National Center for Advancing Translational Sciences (NCATS))
Rhodamine autofl: qHTS Assay for Spectroscopic Profiling in Rhodamine Spectral Region. max dye-equivalent concentration, M. AID 594, 2007. Rhodamine-region fluorescence, 547/598 nm, Tris buffer; hits give high values. 59,000 compounds, 0.05% hits; in the data active = max dye-equivalent concentration above about 11 nM; inconclusive = between about 1.1 nM and that limit
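Intrinsic compound fluorescence, ex 547 / em 598 nm, CCD imager. Tris 100 mM pH 8.0; 15 min RT. Output = rhodamine dye-equivalent concentration at each compound concentration.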
Tau fil binding: qHTS Assay for Tau Filament Binding. Potency, µM (series often up to 57.1 µM), inactives show at the highest dose activity change, negative = inhibition. Microtubule-associated protein tau (Homo sapiens), P10636. 71,000 compounds, 2% hits. recombinant tau filaments, thioflavin S fluorescence, 15 h; filaments grown with octadecylsulfate alongside compound;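 note: potency is the fitted concentration of half-maximal effect; % is set by controls: 0 for no effect and ±100 for the full control effect; actives lower thioflavin S fluorescence by blocking filaments or displacing dye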
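Thioflavine S fluorescence (ex 450, em 510 nm) reports filaments formed from 1 uM human tau plus 30 uM ODS over 15 h at 37 C (10 mM HEPES pH 7.4, 100 mM NaCl, 5 mM DTT); compounds displacing dye or blocking filaments lower signal.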
Texas Red fluor: qHTS Assay for Spectroscopic Profiling in Texas Red Spectral Region; Compound fluorescence, Texas Red channel, 547/618 nm; hits give high values; max dye-equivalent concentration, M; 59,000 compounds, 0.06% hits; AID 587, 2007; in the data active = max dye-equivalent concentration above about 10 nM; inconclusive = between about 1.1 nM and that limit
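Texas Red-region profiling: compounds in 100 mM Tris pH 8.0 were read at 547/618 nm after 15 min at room temperature. Intensities were normalized against a six-point Texas Red standard series to give dye-equivalent concentration.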
HEK293 cAMP cs: qHTS Assay for Agonists of the Thyroid Stimulating Hormone Receptor: Activators of Intracellular cAMP Concentrations in Parental HEK 293 | parental HEK293 CNG cAMP sensor, membrane potential fluorescence | Potency, µM (top dose mostly 57.1 µM), for the others: at the highest dose activation, hits mostly activators | 73,000 compounds, 2.5% hits | AID 938, 2007; note: potency is the fitted concentration of half-maximal effect; % of control where 0% means no effect; nearly all actives have a fitted effect of over 55% in size
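Counterscreen for endogenous-receptor signalling: CNG-channel HEK 293 cells report cAMP rise by membrane depolarization. After 60 min dye equilibration with 100 uM RO 20-1724, compounds incubated 30 min before bottom-read fluorescence at 590 nm.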
Fluorescein fluor: qHTS Assay for Spectroscopic Profiling in Fluorescein Spectral Region; Compound autofluorescence, 480/540 nm, fluorescein-equivalent; hits give high values; max fluorescein-equivalent concentration, M; 59,000 compounds, 0.91% hits; AID 593, 2007; in the data active = max fluorescein-equivalent concentration above about 10 nM; inconclusive = between about 1.1 nM and that limit
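Spectral profiling of library compounds in the fluorescein window (480 nm excitation, 540 nm emission) after 15 min at room temperature in pH 8.0 Tris (100 mM). Values are dye-equivalent concentrations.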
USP2a inhib: qHTS Assay for Inhibitors of Ubiquitin-specific Protease USP2a; 60,000 compounds, 0.1% hits; Ubiquitin carboxyl-terminal hydrolase 2 (Homo sapiens), O75604; Potency, µM (series often up to 38.3 µM), without a hit: at the top dose activity change, negative = inhibition, usual class: inhibitors; USP2a enzymatic assay, qHTS inhibition;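 note: potency is the fitted concentration of half-maximal effect; nearly all actives have a fitted effect of over 60% in size; plate controls were DMSO for no effect and NEM full inhibition control for full effect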
Target sequence (O75604 whole entry, looked up): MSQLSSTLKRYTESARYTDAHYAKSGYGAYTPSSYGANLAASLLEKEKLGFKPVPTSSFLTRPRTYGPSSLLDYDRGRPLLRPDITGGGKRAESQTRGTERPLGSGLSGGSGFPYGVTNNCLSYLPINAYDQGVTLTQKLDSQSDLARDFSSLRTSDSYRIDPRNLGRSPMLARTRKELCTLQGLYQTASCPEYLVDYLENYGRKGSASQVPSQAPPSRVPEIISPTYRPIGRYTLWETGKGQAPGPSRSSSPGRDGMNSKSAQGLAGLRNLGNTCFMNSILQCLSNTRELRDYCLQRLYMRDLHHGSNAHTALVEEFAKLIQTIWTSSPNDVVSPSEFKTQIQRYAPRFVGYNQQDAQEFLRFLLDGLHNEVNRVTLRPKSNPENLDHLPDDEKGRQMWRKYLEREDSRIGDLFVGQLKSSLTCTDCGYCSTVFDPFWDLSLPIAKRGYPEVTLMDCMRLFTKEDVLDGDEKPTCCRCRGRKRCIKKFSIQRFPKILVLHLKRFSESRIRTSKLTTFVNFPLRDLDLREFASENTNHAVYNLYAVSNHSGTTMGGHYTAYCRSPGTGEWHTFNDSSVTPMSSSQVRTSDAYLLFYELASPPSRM
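Coupled readout: USP2-cleaved Ub-PLA2 (20nM final) turns over NBD C6-HPC (20uM final), Ex 460nm/Em 535nm after 2.5 h, time-zero read flagging artifacts. Enzyme (20nM final, pH 8.0 Tris) given 30 min RT with compound first; NEM defines full inhibition.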
ERK AVP block: qHTS Assay for Inhibitors of the ERK Signaling Pathway using a Homogeneous Screening Assay; HEK293-V1b, vasopressin-stimulated pERK AlphaScreen; Potency, µM (doses to about 57.5 µM), for the others: at the top dose activity, negative = inhibition, usual class: inhibitors; 72,000 compounds, 0.99% hits; note: potency is the fitted concentration of half-maximal effect; % is set by controls: 0 for no effect and ±100 for the full control effect; nearly all actives have a fitted effect of over 55% in size
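qHTS, compounds titrated on V1b-expressing HEK293 cells. Preincubation 30 min at 37C, vasopressin 25 nM for 5 min, lysis 10 min, bead incubation 5 hr at room temperature.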
FLuc inh: qHTS Assay for Inhibitors of Firefly Luciferase; Potency, µM (doses to about 57.1 µM), for inactives: top-dose activity change, negative = inhibition, most hits filed as inhibitors; purified firefly luciferase, luminescence, 8 min; 72,000 compounds, 2.2% hits; Luciferin 4-monooxygenase (Photinus pyralis), P08659; note: potency is the fitted concentration of half-maximal effect; % is set by controls: 0 for no effect and ±100 for the full control effect; nearly all actives have a fitted effect of over 40% in size
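Inhibition of light generation by firefly luciferase from ATP and luciferin was profiled with concentration-response curves per sample, ATP held at 10 uM within the enzyme's linear range. Plates were read by luminescence after an 8-minute ambient incubation.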
HADH2 inhib: qHTS Assay for Inhibitors of HADH2 (Hydroxyacyl-Coenzyme A Dehydrogenase, Type II) | recombinant HADH2, NADH fluorescence, beta-hydroxybutyryl-CoA | Potency, µM (doses to about 57.1 µM), inactives show at the highest dose activity change, negative = inhibition, hits mostly inhibitors | 73,000 compounds, 3.4% hits | AID 886, 2007; note: potency is the fitted concentration of half-maximal effect; % is set by controls: 0 for no effect and ±100 for the full control effect; nearly all actives have a fitted effect of over 60% in size; many of its hits are not listed in these tables
Target sequence (Q99714 whole entry, looked up, one chain of several): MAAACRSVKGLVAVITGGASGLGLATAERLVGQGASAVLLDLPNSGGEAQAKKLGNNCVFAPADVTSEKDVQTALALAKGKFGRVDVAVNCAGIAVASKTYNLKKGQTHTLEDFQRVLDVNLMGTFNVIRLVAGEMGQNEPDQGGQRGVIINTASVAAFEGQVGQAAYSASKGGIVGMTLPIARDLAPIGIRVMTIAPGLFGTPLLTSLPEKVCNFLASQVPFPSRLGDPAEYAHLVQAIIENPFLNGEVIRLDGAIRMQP
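E. coli-expressed His-tagged HADH2 tested at 20 nM in alkaline Tris buffer (pH 9.0); oxidation of 90 uM beta-hydroxybutyryl-CoA with 1 mM NAD+ tracked fluorimetrically for 4 min.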
* marks the source's active call; other numbers are inactive results; i = inactive; ? = inconclusive; . = not tested or not shown; [ ] = another dose, or the depositor's remark. Unless noted, calls come from the whole dose curve; as a rule, active = well fitted curve in the direction sought with a large enough effect; inconclusive = small, poorly fitted or top-dose-only effect, or another doubt; inactive = no such curve, though single readings can be large; an effect the other way counts as inactive or inconclusive.

SMILES	Rhodamine autofl	Tau fil binding	Texas Red fluor	HEK293 cAMP cs	Fluorescein fluor	USP2a inhib	ERK AVP block	FLuc inh	HADH2 inhib
O=C(c1ccco1)N1CCN(C(=O)c2cccn3c(=O)c4c5c(sc4nc23)CCCC5)CC1	i	-0.4%	i	-4.7%	i	21.0%	10.8%	-3.0%	3.9%
COC(=O)CSc1nc(N2CCOCC2)c2c(c1C#N)CC(C)(C)N(C)C2	i	-17.3%	i	-0.2%	?	-7.0%	?	-1.1%	-12.8%
COCc1cc(C)nc(SCC(=O)Nc2cccc3cccnc23)c1C#N	.	250.3%	.	11.8%	.	.	.	2.4%	2.8%
O=C(Nc1ccc2nc(-c3ccco3)c(-c3ccco3)nc2c1)N1CCCCCC1	i	1.26µM*	i	3.6%	?	-3.2%	?	-14.2%	2.51µM*
COc1ncc2nc(-c3cccs3)c(=O)n(-c3ccccc3)c2n1	i	123.8%	i	5.6%	i	71.9%[activator]	8.3%	0.7%[11.4 µM]	56.6%[activator]
COc1cccc(Cn2c(=O)c(-c3ccccc3)nc3cnc(N4CCN(C)CC4)nc32)c1	i	202.3%	i	-1.7%	i	277.9%[activator]	-22.8%	0.5%[11.4 µM]	21.1%
COc1ccc(-c2nc3cnc(Oc4cccc(Cl)c4)nc3n(C[C@H]3CCCO3)c2=O)cc1	i	-1.6%	i	?	i	144.3%[activator]	-8.6%	1.3%[11.4 µM]	-5.9%
COn1c(C)c(C(C)=O)c2c3nonc3ccc21	i	30.1%	i	4.2%	?	5.9%	-14.1%	-1.8%	?
N#Cc1c(NCCO)nc(NCc2ccccc2)c2c1CCN(Cc1ccccc1)C2	i	69.0%	?	-8.9%	?	44.0%[activator]	-9.2%	-3.1%	18.3%
Cc1ccc(-c2cc(C(=O)NCCCn3ccnc3)c3cc(Br)ccc3n2)o1	i	15.8µM*	i	6.5%	i	50.2%[activator]	?	-13.3%	-2.1%
O=c1c(-c2cccs2)nc2cncnc2n1Cc1ccccc1	i	119.7%	i	-4.4%	i	157.3%[activator]	-23.7%	1.0%[11.4 µM]	6.3%
c1ccsc1	.	-8.4%	.	?	.	.	0.7%	.	4.6%
COc1cccc(Cn2c(=O)c(-c3ccc(Cl)cc3)nc3cnc(N4CCN(C)CC4)nc32)c1	i	?	i	-14.1%	?	139.9%[activator]	-16.6%	1.9%[11.4 µM]	5.1%
COc1ccc(C2NC3=C(CCCC3)C(C#N)(C#N)C2(C#N)C#N)cc1 (stereo not drawn)	i	180.9%	i	3.1%	?	30.5%[activator]	?	-3.3%	?
COc1cccc(Cn2c(=O)cnc3cnc(Nc4ccccc4)nc32)c1	i	77.9%	i	?	i	147.7%[activator]	?	0.8%[11.4 µM]	10.2%
Cc1ccc(S(=O)(=O)c2c(N)n(Cc3ccco3)c3nc4ccccc4nc23)cc1	.	.	.	-18.1%	.	.	.	.	285.3%[activator]
CCN1CC=C2C(C1)C(c1ccc(Cl)s1)C(C#N)=C(N)C2(C#N)C#N (stereo not drawn)	i	i	i	-11.4%	8.56e-08M*	20.5%	-13.5%	2.0%	20µM*
COc1ccc(-c2nc3cnc(Nc4cccc(OC)c4)nc3n(C3CC3)c2=O)cc1	i	11.6%	i	11.5%	?	179.7%[activator]	-11.9%	-1.7%[11.4 µM]	-10.3%
COc1ccc(-c2cc3nc(-c4ccccc4)cc(N4CCC5(CC4)OCCO5)n3n2)cc1	i	32.5%	i	14.8%	i	8.7%	-8.0%	5.9%	31.6µM*
Cn1c(-c2c(N)n(C3CCCC3)c3nc4ccccc4nc23)nc2ccccc21	i	96.2%	i	-21.2%	i	26.2%	46.3%[activator]	2.7%	16.9%
CN1CCN(c2ncc3nc(-c4cccc(C#N)c4)c(=O)n(C[C@H]4CCCO4)c3n2)CC1	i	-19.1%	i	-7.4%	?	202.7%[activator]	2.9%	1.4%[11.4 µM]	36.2%[activator]
O=c1c(-c2ccccc2)nc2cnc(N3CCOCC3)nc2n1Cc1ccc(F)cc1	i	181.9%	i	17.6%	?	138.9%[activator]	10.1%	-0.3%[11.4 µM]	50.9%[activator]
O=c1c(-c2ccc(Cl)cc2)nc2cnc(Oc3ccccc3)nc2n1C1CC1	i	12.6µM*	i	6.1%	i	128.0%[activator]	-9.2%	1.0%[11.4 µM]	-2.1%
COCCn1c(=O)c(-c2cn(C)c3ccccc23)nc2cnc(OCc3ccccc3)nc21	i	58.7%	i	20.4%	i	231.6%[activator]	-12.4%	0.4%[11.4 µM]	7.9%
CC(C)Cn1c(N)c(C(=O)NCCN2CCOCC2)c2nc3ccccc3nc21	i	32.7%	i	?	i	45.7%[activator]	-8.9%	1.4%	i

Rewritten with each value named: entries from further up.
> O=C(c1ccco1)N1CCN(C(=O)c2cccn3c(=O)c4c5c(sc4nc23)CCCC5)CC1
  Rhodamine autofl = i; Tau fil binding = -0.4%; Texas Red fluor = i; HEK293 cAMP cs = -4.7%; Fluorescein fluor = i; USP2a inhib = 21.0%; ERK AVP block = 10.8%; FLuc inh = -3.0%; HADH2 inhib = 3.9%

> COC(=O)CSc1nc(N2CCOCC2)c2c(c1C#N)CC(C)(C)N(C)C2
  Rhodamine autofl = i; Tau fil binding = -17.3%; Texas Red fluor = i; HEK293 cAMP cs = -0.2%; Fluorescein fluor = ?; USP2a inhib = -7.0%; ERK AVP block = ?; FLuc inh = -1.1%; HADH2 inhib = -12.8%

> COCc1cc(C)nc(SCC(=O)Nc2cccc3cccnc23)c1C#N
  Rhodamine autofl = .; Tau fil binding = 250.3%; Texas Red fluor = .; HEK293 cAMP cs = 11.8%; Fluorescein fluor = .; USP2a inhib = .; ERK AVP block = .; FLuc inh = 2.4%; HADH2 inhib = 2.8%

Next section
SMILES	Rhodamine autofl	Tau fil binding	Texas Red fluor	HEK293 cAMP cs	Fluorescein fluor	USP2a inhib	ERK AVP block	FLuc inh	HADH2 inhib
COc1cccc(Cn2c(=O)c(-c3ccccc3)nc3cnc(N(C)C)nc32)c1	i	2.3%	i	17.6%	i	33.2%[activator]	282.8%[activator]	-1.6%[11.4 µM]	16.8%
O=c1c(O)c(-c2ccc(O)cc2)oc2cc(O)ccc12	i	-26.7%	i	-17.0%	i	.	?	-0.8%[11.4 µM]	?
COc1cccc(Cn2c(=O)c(-c3ccc(F)cc3)nc3cnc(N4CCOCC4)nc32)c1	i	1.1%	i	18.1%	i	48.1%[activator]	-12.4%	-8.1%[11.4 µM]	11.4%
CC/C=C/C#N	.	-4.2%	.	-3.0%	.	.	8.3%	.	-11.0%
CCc1nnc(NC(=O)CSc2nc3c(cc2C#N)CCCC3)s1	i	11.1%	i	9.5%	i	-0.4%	-7.0%	?	-10.8%
COCCn1c(=O)c(-c2cccs2)nc2cnc(Nc3ccccc3)nc21	i	355.5%	i	14.5%	2.69e-08M*	79.4%[activator]	-2.2%	1.5%[11.4 µM]	3.8%
CNC(=O)c1c(N)sc2c1CCCCC2	.	257.3%	.	3.2%	.	-3.3%	-28.4%	-8.2%	?
Oc1cccc(/C=N/c2c(-c3ccco3)nc3ccccn23)c1	.	.	.	-4.1%	.	.	.	.	?
CC[C@@]1(O)C(=O)OCc2c1cc1n(c2=O)Cc2cc3cc(O)ccc3nc2-1	.	.	.	.	.	23.5%	6.9%	.	.
CN(C)c1ncc2nc(-c3cc(F)cc(F)c3)c(=O)n(C)c2n1	i	109.7%	i	-2.0%	i	77.4%[activator]	-5.1%	-3.3%[11.4 µM]	16.0%
COc1cccc2cc(-c3nc(-c4cccs4)cs3)c(=O)oc12	i	i	i	8.1%	2.39e-08M*	44.9%[activator]	6.2%	-13.6%	59.7%[activator]
COc1ncc2nc(-c3ccc(F)cc3)c(=O)n(-c3ccccc3)c2n1	i	-5.2%	i	9.5%	i	16.7%	?	1.1%[11.4 µM]	-4.8%
CCCOc1ccccc1-c1nc(SCCC(=O)O)n[nH]1	i	12.5%	i	21.3%	i	?	-3.4%	-4.4%	2.1%
CCNc1ncc2nc(-c3ccccc3)c(=O)n(CCC#N)c2n1	i	105.0%	i	15.5%	i	0.5%	?	0.8%[11.4 µM]	i
COc1ccc(-n2c(=O)c(-c3ccc(Cl)cc3)nc3cnc(N4CCNCC4)nc32)cc1	i	3.98µM*	i	-11.4%	i	169.2%[activator]	-19.7%	2.2%[11.4 µM]	9.1%
N#CCCn1c(=O)cnc2cnc(N3CCNCC3)nc21	i	-6.6%	i	11.2%	i	-12.0%	-5.8%	-0.4%[11.4 µM]	?
Cc1ccccc1NS(=O)(=O)c1ccc2[nH]cc(C(=O)N(C)Cc3ccco3)c(=O)c2c1	i	41.9%	i	10.7%	?	19.0%	28.2%	-1.9%	?
CCc1cc2c(CN3CCN(CC)CC3)cc(=O)oc2cc1O	i	307.1%	i	7.1%	?	-1.7%	-7.1%	0.1%	31.6µM*
O=C(NCc1ccccn1)c1ccc2nc(-c3ccco3)c(-c3ccco3)nc2c1	i	?	i	-3.3%	?	-13.2%	7.3%	-15.0%	5.01µM*
O=C(O)CCNc1ccc2c(c1)OCCO2	i	94.3%	?	?	?	4.1%	-1.2%	-1.5%	?
N=c1c(C(=O)NCc2ccc(F)cc2)cc2c(=O)n3ccccc3nc2n1CC1CCCO1 (stereo not drawn)	i	3.16µM*	i	-33.6%[inhibitor]	?	18.6%	-10.4%	0.9%	i

Not all compounds are listed (hit frequency here may not be typical).
